From PubChem BioAssay
Ran FRET: inhibitors of Ran–importin-beta complex formation, primary screen, biochemical, CFP-Ran/YFP-importin-beta FRET, RCC1, cell-free (AID 434961) | CFP-Ran/YFP-importin-beta FRET, cell-free; stronger effect = higher value | inhibition, % | 7,700 compounds, 0.2% hits;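 active means more than half of the replicate wells above 15% inhibition; inconclusive means exactly half above it; inactive means fewer than half above it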;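 further: 0% = DMSO wells and 100% inhibition = RanGDP control wells on each plate; stock of unstated strength diluted about 400-fold; mean of two wells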
An asterisk follows results filed as active; ? = inconclusive. Not all compounds are listed; the hit share may differ from the screen's.

entry | Ran FRET | structure
1 | 2.2 | C[C@@H]1CCCCO[C@@H](CN(C)S(=O)(=O)c2ccccc2)[C@@H](C)CN([C@@H](C)CO)C(=O)c2cc(NC(=O)c3ccncc3)ccc2O1
2 | -1.7 | CC(C)NC(=O)Nc1ccc2c(c1)C(=O)N([C@@H](C)CO)C[C@H](C)[C@@H](CN(C)C)OCCCC[C@H](C)O2
3 | 4.2 | Cc1noc(C)c1NC(=O)N(C)C[C@H]1Oc2c(NS(=O)(=O)c3ccccc3)cccc2C(=O)N([C@H](C)CO)C[C@@H]1C
4 | -2.5 | C[C@@H]1CCCCO[C@H](CN(C)C(=O)Nc2ccc3c(c2)OCO3)[C@@H](C)CN([C@H](C)CO)C(=O)c2cc(NS(C)(=O)=O)ccc2O1
5 | -4.0 | C[C@@H]1CN([C@H](C)CO)C(=O)c2cc(NC(=O)Nc3cccc4ccccc34)ccc2O[C@@H]1CN(C)C
6 | -0.9 | COc1ccc(CN(C)C[C@H]2OCCCC[C@@H](C)Oc3ccc(NC(=O)Nc4c(C)noc4C)cc3C(=O)N([C@@H](C)CO)C[C@@H]2C)cc1
7 | 0.2 | COc1ccc(NC(=O)Nc2ccc3c(c2)CC(=O)N([C@@H](C)CO)C[C@@H](C)[C@H](CN(C)C)O3)cc1
8 | -4.9 | C[C@H](CO)N1C[C@H](C)[C@@H](CN(C)C(=O)c2ccccc2)OCCCC[C@H](C)Oc2ccc(NS(=O)(=O)c3cn(C)cn3)cc2C1=O
9 | -2.5 | C[C@@H]1CCCCO[C@@H](CN(C)C(=O)CCCN(C)C)[C@H](C)CN([C@@H](C)CO)C(=O)c2cc(NS(=O)(=O)c3ccccc3)ccc2O1
10 | 30* | C[C@H](CO)N1C[C@H](C)[C@@H](CN(C)Cc2ccncc2)Oc2c(NS(C)(=O)=O)cccc2C1=O
11 | 2.6 | Cc1noc(C)c1NC(=O)N(C)C[C@@H]1Oc2c(NC(=O)NC3CCCCC3)cccc2C(=O)N([C@H](C)CO)C[C@@H]1C
12 | -5.3 | Cc1noc(C)c1NC(=O)N(C)C[C@@H]1Oc2ccc(NC(=O)Nc3ccc4c(c3)OCO4)cc2CC(=O)N([C@@H](C)CO)C[C@H]1C
13 | -0.6 | C[C@H]1CN([C@@H](C)CO)C(=O)CCCn2cc(nn2)CO[C@@H]1CN(C)C(=O)c1ccc2ccn(C)c2c1
14 | -4.5 | C[C@H]1CN([C@@H](C)CO)C(=O)c2cccc(NC(=O)Nc3cccc4ccccc34)c2O[C@H]1CN(C)Cc1ccc(C(=O)O)cc1
15 | 5.4 | CNC[C@@H]1Oc2c(NC(=O)c3cnccn3)cccc2C(=O)N([C@H](C)CO)C[C@H]1C
16 | 0.0 | C[C@H]1CN([C@@H](C)CO)C(=O)Cc2cc(NC(=O)Cc3cn(C)c4ccccc34)ccc2O[C@@H]1CN(C)C(=O)Nc1ccccc1
17 | -1.0 | CCCN(C)C[C@H]1OCCCC[C@@H](C)Oc2ccc(NS(=O)(=O)c3ccc(OC)cc3)cc2C(=O)N([C@@H](C)CO)C[C@H]1C
18 | 1.1 | C[C@@H]1CCCCO[C@@H](CN(C)C)[C@H](C)CN([C@H](C)CO)C(=O)c2cc(NS(C)(=O)=O)ccc2O1
19 | 2.4 | COc1ccc(NC(=O)Nc2ccc3c(c2)C(=O)N([C@H](C)CO)C[C@H](C)[C@H](CN(C)S(=O)(=O)c2cccs2)O3)cc1
20 | 2.7 | C[C@@H]1CN([C@@H](C)CO)C(=O)Cc2cc(NC(=O)Nc3ccc(F)cc3)ccc2O[C@H]1CN(C)Cc1ccc(C(=O)O)cc1
21 | -0.6 | Cc1noc(C)c1S(=O)(=O)Nc1ccc2c(c1)C(=O)N([C@H](C)CO)C[C@@H](C)[C@@H](CN(C)C(=O)c1ccncc1)OCCCC[C@@H](C)O2
22 | 0.4 | C[C@@H]1CN([C@@H](C)CO)C(=O)Cc2cc(NC(=O)Nc3cccc4ccccc34)ccc2O[C@@H]1CN(C)Cc1ccc(C(=O)O)cc1
23 | ? | C[C@@H]1CN([C@@H](C)CO)C(=O)Cc2cc(NS(=O)(=O)c3cccs3)ccc2O[C@H]1CN(C)S(=O)(=O)c1ccc(Cl)cc1
24 | -2.4 | CNC[C@H]1OCCCC[C@@H](C)Oc2ccc(NS(=O)(=O)c3ccccc3)cc2C(=O)N([C@H](C)CO)C[C@H]1C
25 | -1.7 | Cc1noc(C)c1NC(=O)N(C)C[C@H]1Oc2ccc(NC(=O)Nc3ccc(F)cc3)cc2CC(=O)N([C@@H](C)CO)C[C@H]1C
26 | -0.1 | C[C@@H]1CCCCO[C@H](CN(C)Cc2ccncc2)[C@@H](C)CN([C@H](C)CO)C(=O)c2cc(NS(=O)(=O)c3ccccc3)ccc2O1
27 | 0.5 | C[C@@H]1CN([C@H](C)CO)C(=O)Cc2cc(N(C)C)ccc2O[C@@H]1CN(C)Cc1ccncc1
28 | -2.4 | CC(C)NC(=O)N(C)C[C@@H]1OCCCC[C@H](C)Oc2ccc(NS(C)(=O)=O)cc2C(=O)N([C@H](C)CO)C[C@@H]1C
29 | -0.2 | CC(C)NC(=O)Nc1ccc2c(c1)C(=O)N([C@H](C)CO)C[C@H](C)[C@H](CN(C)S(=O)(=O)c1cn(C)cn1)OCCCC[C@@H](C)O2
30 | -2.3 | C[C@@H]1CN([C@@H](C)CO)C(=O)c2cc(NS(=O)(=O)c3ccccc3)ccc2O[C@@H](C)CCCCO[C@@H]1CN(C)Cc1ccccc1
31 | -1.7 | Cc1noc(C)c1NC(=O)N(C)C[C@H]1OCCCC[C@@H](C)Oc2ccc(NC(=O)CCC(F)(F)F)cc2C(=O)N([C@H](C)CO)C[C@H]1C
32 | -0.9 | Cc1noc(C)c1S(=O)(=O)Nc1ccc2c(c1)CC(=O)N([C@H](C)CO)C[C@@H](C)[C@@H](CN(C)C(=O)Nc1ccc(F)cc1)O2
33 | -11 | C[C@@H]1CN([C@@H](C)CO)C(=O)CCCn2cc(nn2)CO[C@@H]1CN(C)Cc1ccc(C(F)(F)F)cc1
34 | -4.1 | C[C@H]1CN([C@@H](C)CO)C(=O)Cc2cc(NC(=O)C3CC3)ccc2O[C@@H]1CN(C)C(=O)Nc1ccc(F)cc1
35 | -2.6 | C[C@H](CO)N1C[C@H](C)[C@@H](CN(C)C(=O)Nc2ccccc2)Oc2ccc(NC(=O)Nc3ccccc3)cc2CC1=O
36 | -0.2 | C[C@@H]1CN([C@@H](C)CO)C(=O)Cc2cc(NC(=O)NC3CCCCC3)ccc2O[C@H]1CN(C)C(=O)Nc1ccc(C(F)(F)F)cc1
37 | 5.3 | C[C@H]1CN([C@@H](C)CO)C(=O)c2cc(NC(=O)Nc3ccc4c(c3)OCO4)ccc2O[C@H]1CN(C)Cc1ccncc1
38 | -0.4 | C[C@@H]1CN([C@H](C)CO)C(=O)Cc2cc(NS(=O)(=O)c3cccs3)ccc2O[C@@H]1CN(C)C(=O)Nc1cccc2ccccc12
39 | -0.5 | C[C@@H]1CN([C@@H](C)CO)C(=O)CCCn2cc(nn2)CO[C@H]1CN(C)C(=O)CCCN(C)C
40 | -0.3 | C[C@@H]1CN([C@H](C)CO)C(=O)c2cc(NS(=O)(=O)c3cn(C)cn3)ccc2O[C@@H]1CN(C)C(=O)Nc1ccc2c(c1)OCO2
41 | -4.4 | C[C@H]1CCCCO[C@H](CN(C)C(=O)c2ccncc2)[C@@H](C)CN([C@@H](C)CO)C(=O)c2cc(NC(=O)CCC(F)(F)F)ccc2O1
42 | -4.1 | C[C@@H]1CCCCO[C@H](CN(C)C(=O)Nc2ccc(F)cc2)[C@@H](C)CN([C@H](C)CO)C(=O)c2cc(NS(=O)(=O)c3ccccc3)ccc2O1
43 | 0.9 | C[C@@H]1CCCCO[C@@H](CN(C)S(=O)(=O)c2ccccc2)[C@H](C)CN([C@H](C)CO)C(=O)c2cc(N(C)C)ccc2O1
44 | 1.4 | COc1ccc(NC(=O)Nc2ccc3c(c2)C(=O)N([C@H](C)CO)C[C@@H](C)[C@H](CN(C)Cc2ccc(C(=O)O)cc2)O3)cc1
45 | ? | COc1ccc(-c2cnc3c(c2)C(=O)N([C@H](C)CO)C[C@H](C)[C@H](CN(C)S(=O)(=O)c2ccc(OC)cc2)O3)cc1
46 | -4.6 | C[C@@H]1CN([C@H](C)CO)C(=O)c2cc(NC(=O)Cn3cnnn3)ccc2O[C@H]1CN(C)Cc1ccncc1
47 | -1.3 | C[C@@H]1CN([C@@H](C)CO)C(=O)c2cccc(NC(=O)C3CCOCC3)c2O[C@@H]1CN(C)Cc1ccncc1
48 | -3.3 | C[C@H](CO)N1C[C@H](C)[C@@H](CN(C)C(=O)NC2CCCCC2)Oc2ccc(NS(=O)(=O)c3ccccc3)cc2CC1=O
49 | 4.1 | C[C@H](CO)N1C[C@H](C)[C@H](CN(C)C(=O)c2ccccc2)OCCCC[C@H](C)Oc2ccc(NS(=O)(=O)c3cn(C)cn3)cc2C1=O
50 | -2.7 | C[C@H]1CN([C@@H](C)CO)C(=O)c2cccc(NS(=O)(=O)c3cn(C)cn3)c2O[C@H]1CN(C)S(=O)(=O)c1cn(C)cn1
51 | -3.5 | C[C@H](CO)N1C[C@H](C)[C@@H](CN(C)S(=O)(=O)c2ccc(-n3cccn3)cc2)OCc2cn(nn2)CCCC1=O
52 | -1.5 | C[C@H]1CN([C@@H](C)CO)C(=O)Cc2cc(NS(C)(=O)=O)ccc2O[C@@H]1CN(C)CC1CC1
53 | -1.1 | COc1ccc(NC(=O)Nc2cccc3c2O[C@@H](CN(C)S(=O)(=O)c2ccc(OC)cc2)[C@H](C)CN([C@H](C)CO)C3=O)cc1
54 | 0.9 | C[C@H]1CN([C@@H](C)CO)C(=O)c2cccc(NS(C)(=O)=O)c2O[C@H]1CN(C)S(=O)(=O)c1ccc(Cl)cc1
55 | -0.7 | Cc1noc(C)c1S(=O)(=O)Nc1ccc2c(c1)CC(=O)N([C@@H](C)CO)C[C@@H](C)[C@@H](CN(C)C)O2
56 | 0.7 | COc1ccc(S(=O)(=O)N(C)C[C@@H]2Oc3ccc(NC(=O)Nc4ccc5c(c4)OCO5)cc3C(=O)N([C@@H](C)CO)C[C@H]2C)cc1

Following part.
entry | Ran FRET | structure
57 | 5.3 | C[C@H](CO)N1C[C@H](C)[C@H](CN(C)Cc2ccccc2)OCCCC[C@H](C)Oc2ccc(NS(=O)(=O)c3cn(C)cn3)cc2C1=O
58 | 4.1 | C[C@@H]1CN([C@@H](C)CO)C(=O)Cc2cc(NC(=O)CCC(F)(F)F)ccc2O[C@H]1CN(C)C(=O)Nc1cccc2ccccc12
59 | -2.1 | Cc1noc(C)c1NC(=O)N(C)C[C@H]1Oc2ccc(NC(=O)Nc3ccc4c(c3)OCO4)cc2CC(=O)N([C@@H](C)CO)C[C@@H]1C
60 | -0.7 | COc1ccc(S(=O)(=O)N(C)C[C@@H]2Oc3ncc(C#CC(C)(C)O)cc3C(=O)N([C@H](C)CO)C[C@@H]2C)cc1
61 | ? | C[C@@H]1CN([C@@H](C)CO)C(=O)c2cc(NC(=O)Nc3ccccc3)ccc2O[C@@H](C)CCCCO[C@@H]1CN(C)C(=O)Cc1ccccc1
62 | 4.8 | C[C@H](CO)N1C[C@H](C)[C@H](CN(C)Cc2ccncc2)Oc2c(NS(=O)(=O)c3ccc(Cl)cc3)cccc2C1=O
